Screening results from PubChem.
Mtb H37Rv: M. tuberculosis H37Rv growth inhibitors, H37Rv strain (AID 1626). M. tuberculosis H37Rv growth inhibition; higher % means a stronger effect. one-dose inhibition, % at 10 µM; IC50 in µM for titrated hits. hit rate 0.95% among 220,000;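 active = confirmed in a dose series; inconclusive = inhibition above 80% but not taken into the dose series; inactive = below 80% or under 30% at every dose of the series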;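 also: bacteria incubated seven days before Alamar blue readout; 0% = bacteria only wells and 100% = bacteria with antibiotic wells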
Mtb betalactam: beta-lactam sensitization of Mtb H37Rv, H37Rv; hit rate 0.27% among 330,000; AID 434955, 2010; inhibition, % at 25 µM; M. tuberculosis H37Rv growth with meropenem, percent inhibition; hits of this screen are not shown here;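 active = about 74% or more and at least 40 points above the plate without the antibiotic, then above 30% in a dose series; inconclusive = first-round hits that could not be retested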;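 also: growth measured after seven days incubation then overnight dye step; 0% = bacteria only wells and 100% = bacteria with antibiotic; twin plates without the antibiotic show which effects depend on it; some results filed as inactive read as strong as hits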
RecA intein inh: Mtb RecA intein splicing inhibitors, primary screen, biochemical, fluorescence, HTS | cell-free RecA intein splicing | inhibition, %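 (about 9 µM by stock and volumes)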 | hit rate 0.75% among 290,000; in the data active = inhibition above about 30%; inconclusive = no clear call, values can overlap the other calls;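 also: 0% = vehicle wells and 100% = reference inhibitor control wells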
Target sequence (P9WHJ3 whole entry, looked up): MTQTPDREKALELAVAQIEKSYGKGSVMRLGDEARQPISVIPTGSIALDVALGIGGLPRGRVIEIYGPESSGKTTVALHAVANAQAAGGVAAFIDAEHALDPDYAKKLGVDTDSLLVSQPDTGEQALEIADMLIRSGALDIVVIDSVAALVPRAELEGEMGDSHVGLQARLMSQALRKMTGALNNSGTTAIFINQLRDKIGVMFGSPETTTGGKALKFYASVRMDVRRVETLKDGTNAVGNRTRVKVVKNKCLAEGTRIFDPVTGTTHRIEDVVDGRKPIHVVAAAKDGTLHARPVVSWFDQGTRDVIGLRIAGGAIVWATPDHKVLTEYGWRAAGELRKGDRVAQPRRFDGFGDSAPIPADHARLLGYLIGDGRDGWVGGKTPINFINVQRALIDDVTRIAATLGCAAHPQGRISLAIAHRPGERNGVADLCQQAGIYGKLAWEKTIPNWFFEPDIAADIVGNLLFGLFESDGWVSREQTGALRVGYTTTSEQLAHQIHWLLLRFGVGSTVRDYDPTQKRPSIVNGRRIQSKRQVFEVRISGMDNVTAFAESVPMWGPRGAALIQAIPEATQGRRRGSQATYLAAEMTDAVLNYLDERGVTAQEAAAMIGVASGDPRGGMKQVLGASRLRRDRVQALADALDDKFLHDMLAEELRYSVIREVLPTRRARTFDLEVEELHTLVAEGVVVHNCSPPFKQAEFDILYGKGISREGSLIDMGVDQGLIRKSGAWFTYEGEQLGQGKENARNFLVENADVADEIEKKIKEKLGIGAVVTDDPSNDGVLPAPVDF
YopH PTP inh: YopH tyrosine phosphatase inhibitors, primary screen, biochemical, fluorescence Ex485/Em525. AID 898, 2007. YopH tyrosine phosphatase [Yersinia enterocolitica]. inhibition, %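 (about 10 µM by stock and volumes)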. hit rate 0.16% among 140,000;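 active = inhibition of 50% or more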;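 also: controls were vehicle for no effect and minimum signal wells for full effect; inactives centre near -20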
Arbovirus anti: antivirals against arbovirus infection, primary screen, cell-based, full library, 10K replicate subset; arbovirus infection cell-based antiviral screen; inhibition, % at 10 µM; hit rate 0.37% among 200,000; AID 1251, 2008;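 active = inhibition from about 30%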;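 also: bluetongue infection of BSR cells; cell survival read as ATP light after 72 h; 0% = infected wells without compound and 100% = uninfected wells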
* hit, by the source's call.

For Cc1ccc(C)c(N2CCN(C(=O)C3CCN(c4nnc(N5CCCC5=O)s4)CC3)CC2)c1 the results were Mtb betalactam 69, RecA intein inh -1.0 and YopH PTP inh -24.
For CCn1ccnc1CN1CCc2c([nH]c3ccccc23)C1C1CCCCC1 (stereo not given) the results were Mtb H37Rv 1%, Mtb betalactam 16, RecA intein inh -3.4 and Arbovirus anti 4.
COc1ccc(CN(C#N)c2nc(C)cc(C)n2)cc1 was read as Mtb betalactam -3 and RecA intein inh 3.1.
Screening COC(=O)C(C(=O)N1CCN(C)CC1)C1CCCCCC1 (stereo not given) returned Mtb H37Rv -11%, Mtb betalactam 2, YopH PTP inh -34 and Arbovirus anti 7.
O=[N+]([O-])c1ccc(CSC2=NCCS2)cc1 was read as Mtb betalactam 3 and RecA intein inh 5.4.
`Nc1nc2c(nc(N3CCCCC3)n2[C@@H]2O[C@H](CO)[C@@H](O)[C@H]2O)c(=O)[nH]1` gave Mtb betalactam -12 and RecA intein inh -1.5.
For COC(=O)/C=C1/SC(=NC(=O)c2ccc(Cl)cc2)NC1=O the results were Mtb betalactam -2 and RecA intein inh 9.5.
Screening CCOc1nc(NC(=O)NS(=O)(=O)Oc2ccccc2Cl)nc(-c2ccccc2)n1 returned Mtb H37Rv -5%, Mtb betalactam -8, RecA intein inh 2.6, YopH PTP inh -13 and Arbovirus anti -5.
`COc1ccccc1N1C(=O)CC(N2CCN(c3ccc(F)cc3)CC2)C1=O` (stereo not given) gave Mtb betalactam -1 and RecA intein inh -2.2.
`COc1ccccc1CNC(=O)COC(=O)c1cc(C)oc1C` gave Mtb H37Rv 1%, Mtb betalactam 1, RecA intein inh -0.3 and Arbovirus anti -3.
For Cc1cc(=O)n(Cc2ccccc2)c2ccccc12 the results were Mtb betalactam -2 and RecA intein inh 1.7.
For CN(CCOc1ccccc1)CC(=O)Nc1cccc(C#N)c1 the results were Mtb betalactam -5 and RecA intein inh -0.8.
For O=C(NCC1CCCO1)c1nn2c(C(F)(F)F)cc(-c3cccs3)nc2c1Cl (stereo not given) the results were Mtb betalactam 3 and RecA intein inh -12.
`CCOc1ccc2[nH]cc(C(=O)O)c(=O)c2c1` gave Mtb H37Rv -2%, Mtb betalactam 5, RecA intein inh -1.7, YopH PTP inh -36 and Arbovirus anti 2.
`CC(NC(=O)CNC(=O)c1sc2ccccc2c1Cl)c1ccc(S(N)(=O)=O)cc1` (stereo not given) gave Mtb betalactam -10 and RecA intein inh 0.8.
For O=C(CN1CCC(O)(c2ccccc2)CC1)Nc1ccc2c(c1)OCCO2 the results were Mtb H37Rv 0%, Mtb betalactam 0, RecA intein inh 3.4 and Arbovirus anti 2.
For CCCCc1cc(=O)oc2cc(OCC(=O)NCC3CCC(C(=O)O)CC3)ccc12 (stereo not given) the results were Mtb betalactam 3 and RecA intein inh 13.
Screening O=[N+]([O-])c1ccc(NC(=S)N2CCN(c3ccc(F)cc3)CC2)cc1 returned Mtb betalactam -8, RecA intein inh 5.5, YopH PTP inh -39 and Arbovirus anti 16.
`COc1ccc(OC)c(CN2CCCC(C(=O)c3sccc3C)C2)c1` (stereo not given) gave Mtb H37Rv -6%, Mtb betalactam 7 and RecA intein inh 2.5.
For COc1ccc(C(=O)O)cc1NC(=S)NC(=O)CSc1ccc(Cl)cc1 the results were Mtb betalactam inconclusive and RecA intein inh 2.2.
CCCNC(=O)c1cc2cc([N+](=O)[O-])ccc2s1 was read as Mtb H37Rv 0%, Mtb betalactam -4, RecA intein inh -0.2 and Arbovirus anti 0.
For COc1ccc(C(=O)NCc2nnc(SCC(=O)Nc3nnc(C)s3)o2)cc1OC the results were Mtb H37Rv 3%, Mtb betalactam -4, RecA intein inh -2.8 and Arbovirus anti -1.
For CC(=O)Nc1ccc(CCc2nc3ccccc3[nH]2)cc1 the results were Mtb betalactam 1 and RecA intein inh -0.3.
Screening Cc1cc(C)c2c(=O)n(CC(=O)NC3CCCC3)sc2n1 returned Mtb H37Rv -2%, Mtb betalactam 0 and RecA intein inh -0.4.
Cc1ccccc1S(=O)(=O)Cc1ccc(C(=O)N(C)C2CCCCC2)o1 was read as Mtb betalactam 0 and RecA intein inh 0.1.
`CC#CCCCC(=O)Nc1cc(OC)nc(OC)n1` gave Mtb H37Rv -15%, Mtb betalactam -8, RecA intein inh -0.8, YopH PTP inh -39 and Arbovirus anti 7.
O=C1SC(c2ccccc2)=N/C1=C/c1ccco1 was read as Mtb H37Rv -2%, Mtb betalactam 9, RecA intein inh 2.6, YopH PTP inh -4 and Arbovirus anti 4.
Screening CC(C)N1C(=O)CCC1C(=O)N1CCC2(CC1)OCCO2 (stereo not given) returned Mtb H37Rv -6%, Mtb betalactam -8, RecA intein inh 0.1, YopH PTP inh -106 and Arbovirus anti 2.
Screening O=C(c1ccc(F)cc1F)N(Cc1ccccn1)Cc1ccco1 returned Mtb H37Rv -2%, Mtb betalactam -6, YopH PTP inh 3 and Arbovirus anti 0.
COc1cc(-c2nnc3n2CCCCC3)cc(OC)c1OC was read as Mtb betalactam -5 and RecA intein inh -3.6.
For O=C(Nc1ccccc1C(=O)NCCCN1CCOCC1)c1ccc(F)cc1F the results were Mtb betalactam -18 and RecA intein inh -0.8.
`Cc1c(CCC(=O)O)c(=O)oc2c(C)c(OCc3cc4c(cc3Cl)OCO4)ccc12` gave Mtb H37Rv 2%, Mtb betalactam -6 and RecA intein inh 2.6.
CCCC(C(=O)NC1CCCC1)N(Cc1ccccc1Cl)C(=O)c1snc(C(N)=O)c1N (stereo not given) was read as Mtb betalactam 6 and RecA intein inh -0.6.
For Cc1ccc(N2CC(C(=O)Nc3c4c(nn3C(C)(C)C)CS(=O)(=O)C4)CC2=O)cc1C (stereo not given) the results were Mtb betalactam inconclusive and RecA intein inh 0.9.
Screening CC(=O)N1c2ccc(S(=O)(=O)NCC3CCC(C(=O)NCc4ccc(C)o4)CC3)cc2CC1C (stereo not given) returned Mtb betalactam 1 and RecA intein inh 1.2.
Screening CCOc1cc(-c2c(C)c(C)nc(N)c2C#N)ccc1O returned Mtb H37Rv -2%, Mtb betalactam -1, RecA intein inh -1.0, YopH PTP inh -31 and Arbovirus anti 0.
For CCn1cc(C(=O)NC(C)CCc2ccccc2)c(=O)c2cc(S(=O)(=O)N(C)C)ccc21 (stereo not given) the results were Mtb betalactam 92 and RecA intein inh -4.3.
Screening CN(C)CCCN=Cc1c(-c2ccccc2)[nH]n(-c2nc3ccccc3s2)c1=O returned Mtb H37Rv -3%, Mtb betalactam 2, RecA intein inh 2.6 and Arbovirus anti 24.
For O=C(CN(C1CCCCC1)S(=O)(=O)c1ccc(Cl)cc1)NCc1cccnc1 the results were Mtb H37Rv -9%, Mtb betalactam 8, RecA intein inh 1.2, YopH PTP inh -5 and Arbovirus anti 4.
For CC(C)OC(=O)CSc1nc(N)c(C#N)c(-c2ccco2)c1C#N the results were Mtb H37Rv 53%, Mtb betalactam 2, RecA intein inh 1.9, YopH PTP inh -26 and Arbovirus anti 2.

4 structures from above, sorted by number of heavy atoms, rising:
Screening CCOc1cc(-c2c(C)c(C)nc(N)c2C#N)ccc1O returned Mtb H37Rv -2%, Mtb betalactam -1, RecA intein inh -1.0, YopH PTP inh -31 and Arbovirus anti 0.
For CN(CCOc1ccccc1)CC(=O)Nc1cccc(C#N)c1 the results were Mtb betalactam -5 and RecA intein inh -0.8.
`COc1ccccc1N1C(=O)CC(N2CCN(c3ccc(F)cc3)CC2)C1=O` (stereo not given) gave Mtb betalactam -1 and RecA intein inh -2.2.
`CC(NC(=O)CNC(=O)c1sc2ccccc2c1Cl)c1ccc(S(N)(=O)=O)cc1` (stereo not given) gave Mtb betalactam -10 and RecA intein inh 0.8.

The listing continues:
`O=C(Cc1ccccc1)N1CCN(C2CCCC2)CC1` gave Mtb H37Rv -12%, Mtb betalactam -3, RecA intein inh 1.1, YopH PTP inh -6 and Arbovirus anti -1.
`CSCCC1NC(=O)N(CC(=O)N2N=C(c3ccc(Cl)cc3)CC2c2ccco2)C1=O` (stereo not given) gave Mtb H37Rv inconclusive, Mtb betalactam 99, RecA intein inh 0.3 and Arbovirus anti -6.
For COc1cc(C(=O)Nc2sc(C(=O)N3CCOCC3)c(C)c2C#N)cc(OC)c1OC the results were Mtb betalactam -3, RecA intein inh -0.5, YopH PTP inh -7 and Arbovirus anti 4.
Screening COc1ccc2[nH]c3c(=O)n(CCN4CCOCC4)cnc3c2c1 returned Mtb H37Rv -7%, Mtb betalactam 2 and RecA intein inh 5.9.
For O=C(CN1CCN(Cc2ccc(Cl)cc2)C1=O)N1CCC2(CC1)OCCO2 the results were Mtb H37Rv 1%, Mtb betalactam 3, RecA intein inh 1.8, YopH PTP inh -11 and Arbovirus anti 14.
COc1ccc(/C=N/N2CCN(c3ccc(Cl)cc3)CC2)cc1O was read as Mtb betalactam -5 and RecA intein inh -3.9.
CS(=O)(=O)c1ccc2nc(NC(=O)CN3CCC(Cc4ccccc4)CC3)sc2c1 was read as Mtb betalactam -4 and RecA intein inh -0.1.
`Cc1occc1C(=O)Nc1ccc(S(=O)(=O)N2CCN(C)CC2)cc1` gave Mtb H37Rv 3%, Mtb betalactam -8, RecA intein inh -1.0, YopH PTP inh -30 and Arbovirus anti 1.
Screening COc1ccc(C(CC(=O)N2CCC3(CC2)OCCO3)NS(=O)(=O)c2ccc(C)cc2)cc1 (stereo not given) returned Mtb H37Rv -3%, Mtb betalactam -4, RecA intein inh 1.5, YopH PTP inh -48 and Arbovirus anti -2.
`Nc1nonc1-n1nnc(C(=O)N/N=C/c2ccoc2)c1CSc1ccccc1` gave Mtb betalactam 5 and RecA intein inh -1.5.
`O=[N+]([O-])c1cccc(C(=Nc2ccccc2)NO)c1` gave Mtb H37Rv -4%, Mtb betalactam 9, RecA intein inh 7.7, YopH PTP inh -37 and Arbovirus anti -6.
For O=C(N/N=C\c1ccoc1)c1ccco1 the results were Mtb betalactam 0 and RecA intein inh 0.9.
For O=C(CSc1ccccn1)Nc1cccc(NC(=O)CSc2ccccn2)n1 the results were Mtb H37Rv -1%, Mtb betalactam 6, RecA intein inh 1.0, YopH PTP inh -11 and Arbovirus anti -1.
CCOC(=O)c1cnn(-c2cc(C)nc3c(-c4ccccc4)cnn23)c1N was read as Mtb H37Rv -8%, Mtb betalactam -10, RecA intein inh -1.1, YopH PTP inh -24 and Arbovirus anti -4.
CC1CCCCN1C(=O)CSc1nc2ccccc2[nH]1 (stereo not given) was read as Mtb H37Rv 4%, Mtb betalactam -5, RecA intein inh 3.5 and Arbovirus anti -3.
For COCCc1ncc(CN2CCC(C(=O)Nc3cccc(-c4cscn4)c3)CC2)cn1 the results were Mtb betalactam 4 and RecA intein inh 0.6.
`CCOC(=O)/C(=N/Nc1ccc(OC)cc1)N1CCCc2ccccc21` gave Mtb H37Rv inconclusive, Mtb betalactam 97 and RecA intein inh 8.4.
Cc1ccc(S(=O)(=O)NCC(=O)N(CC(=O)NCc2ccco2)Cc2ccc(F)cc2)cc1 was read as Mtb betalactam -4 and RecA intein inh 2.9.
`O=C(Nc1cccc2cccnc12)c1ccccc1Br` gave Mtb betalactam 3 and RecA intein inh -0.9.
For Cc1ccc(C(=O)/C=C/c2ccc(-c3ccc(C)cc3)o2)cc1 the results were Mtb H37Rv 88%, Mtb betalactam 92, RecA intein inh 9.2, YopH PTP inh -26 and Arbovirus anti 5.
`COc1ccc(/C=c2/sc3nc(-c4ccccc4)c(-c4ccccc4)n3c2=O)cc1` gave Mtb H37Rv -2%, Mtb betalactam 12, RecA intein inh -3.5, YopH PTP inh -12 and Arbovirus anti -4.
COc1cc(NC(=O)c2cc(C)on2)cc(C(=O)Nc2cccc(C(F)(F)F)c2)c1 was read as Mtb H37Rv -3%, Mtb betalactam -13 and RecA intein inh 0.9.
For C[C@@H](CN1C(=O)C(=O)NC[C@@H]1C)NC(=O)CC12CC3CC(CC(C3)C1)C2 the results were Mtb betalactam -17 and RecA intein inh -3.2.
Screening O=C(COc1ccc(S(=O)(=O)NCc2ccccc2)cc1Cl)NCc1ccccn1 returned Mtb betalactam 2 and RecA intein inh -0.7.
`Cc1ccc(NC(=O)COC(=O)C2CC2(Cl)Cl)cc1C` (stereo not given) gave Mtb H37Rv 27%, Mtb betalactam 4, RecA intein inh 2.8 and Arbovirus anti -3.
`O=S(=O)(c1cccc(C(F)(F)F)c1)N1CCN(c2ccccc2)CC1` gave Mtb H37Rv -6%, Mtb betalactam -3, RecA intein inh 0.4, YopH PTP inh -21 and Arbovirus anti 8.
CC(C)CC1(C)NC(=O)NC1=O (stereo not given) was read as Mtb H37Rv 1%, Mtb betalactam 4, RecA intein inh -2.4, YopH PTP inh -32 and Arbovirus anti 2.
Cc1c(/C(O)=C2/C(=O)C(=O)N(CCN(C)C)C2c2ccc(C(C)C)cc2)cnn1-c1ccccc1 (stereo not given) was read as Mtb H37Rv -10%, Mtb betalactam -9 and RecA intein inh 9.4.

A portion of the library (hit frequency here may not be typical).
